Cruzain inh Det: inhibitors of Trypanosoma cruzi cruzain with detergent | P25779 | actives 0.43% (n = 200,000) | AID 1478 | purified cruzain, Z-FR-AMC fluorescence, 0.01% Triton | Potency, µM, without a hit: max response, negative = inhibition, usual class: inhibitors;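 also: plate controls were neutral wells for no effect and buffer without enzyme for full effect; nearly all actives have a fitted effect of over 40% in size; top concentration of the series not given in the record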
Target sequence (P25779 123-467 limits assumed): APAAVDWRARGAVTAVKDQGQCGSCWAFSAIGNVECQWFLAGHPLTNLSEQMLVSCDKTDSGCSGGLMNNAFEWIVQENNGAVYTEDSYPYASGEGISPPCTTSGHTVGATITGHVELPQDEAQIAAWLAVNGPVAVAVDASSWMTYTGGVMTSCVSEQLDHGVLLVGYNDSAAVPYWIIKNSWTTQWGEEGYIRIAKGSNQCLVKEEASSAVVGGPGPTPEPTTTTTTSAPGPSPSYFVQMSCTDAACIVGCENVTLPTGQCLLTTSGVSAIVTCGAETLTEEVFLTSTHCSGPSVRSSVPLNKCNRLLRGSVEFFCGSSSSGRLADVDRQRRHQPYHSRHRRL
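Sodium acetate buffer (100 mM, pH 5.5) containing 5 mM DTT and 0.01% Triton X-100 hosted 1.5 nM cruzain and test compound for 15 min at room temperature. Cleavage of 2 uM Z-FR-AMC was then tracked by fluorescence.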
Cruzain inh noDet: cruzain (T. cruzi) inhibition without detergent. Potency, µM, without a hit: max response, negative = inhibition, usual class: inhibitors. purified cruzain, Z-FR-AMC fluorescence, no detergent. actives 2.3% (n = 200,000). AID 1476. P25779;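 also: plate controls were enzyme without inhibitor for no effect and buffer without enzyme for full effect; nearly all actives have a fitted effect of over 40% in size; top concentration of the series not given in the record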
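Purified cruzain at 1.5 nM, pre-incubated 15 min with compound at room temperature in 100 mM sodium acetate pH 5.5, 5 mM DTT, 0.00005% Triton X-100. Reaction started with 2 uM Z-FR-AMC; AMC fluorescence increase over 60 s gives rate.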
An asterisk follows results filed as active; ? = inconclusive; & = joins results of further samples. Calls follow the shape of the dose curve; as a rule, active = well fitted curve in the direction sought with a large enough effect; inconclusive = small, poorly fitted or top-dose-only effect, or another doubt; inactive = no such curve, though single readings can be large; an effect the other way counts as inactive or inconclusive. Potency is read from the fitted curve at half-maximal effect. This is a subset; the hit share may differ from the screen's.

SMILES	Cruzain inh noDet	Cruzain inh Det
CC(C)(C)OOC(=O)c1ccccc1	-2%	0.9%
CN(C)c1ccc(CNC(=O)[C@@]2(C)C=C[C@@H](Cc3ccccc3)N2C)cc1	2%	-2.0%
CCCCC/C=C\C/C=C\C/C=C\C=C\C(O)CCCC(=O)O (configuration not stated)	-5%	2.4%
CCNC[C@H](O)c1cccc(O)c1	8%	-2.3%
C[C@@H]1O[C@@H](OC[C@H]2O[C@@H](Oc3c(-c4cccc(O)c4O)oc4cc(O)cc(O)c4c3=O)[C@H](O)[C@@H](O)[C@@H]2O)[C@H](O)[C@H](O)[C@H]1O	-2%	-6.6%
COc1cccc([C@@H]2Oc3ccc(OC)cc3C[C@H]2OC(=O)Nc2cc(OC)c(OC)c(OC)c2)c1	24%	1.4%
COc1ccc(C2CC(=O)c3c(O)cc(OC4OC(COC5OC(C)C(O)C(O)C5O)C(O)C(O)C4O)cc3O2)cc1O (configuration not stated)	0%	3.3%
CC(=O)N[C@@H]1C(O)OC(CO)C(O)C1O (some centres not stated)	2%	11%
O=[N+]([O-])c1cc(C(F)(F)F)cc([N+](=O)[O-])c1Cl	?	1.3%
N#Cc1cccc(CS(=O)(=O)c2nnnn2C2CCCCC2)c1	-13%	-2.3%
Cc1cc(C)cc([N+](=O)[O-])c1	-3%	-1.2%
CCN(N=O)C(N)=O	-6%	5.6%

Profiles, looked up by structure. Values in the order: Cruzain inh noDet | Cruzain inh Det
CCN(N=O)C(N)=O across the screens: -6% | 5.6%
COc1ccc(C2CC(=O)c3c(O)cc(OC4OC(COC5OC(C)C(O)C(O)C5O)C(O)C(O)C4O)cc3O2)cc1O (configuration not stated) across the screens: 0% | 3.3%

Going on with the list.
SMILES	Cruzain inh noDet	Cruzain inh Det
CN1CCN([C@@H](c2ccccc2)c2ccc(Cl)cc2)CC1	-5%	2.0%
C=C1c2cccc(C(F)(F)F)c2O[C@H](C(=O)OCC)[C@@H]1CCC(C)C	6%	2.3%
COC(=O)[C@@H]1C[C@@]2(O)[C@H](O)[C@H](O)[C@H](O)C[C@H]2N1Cc1ccc(N2CCN(C)CC2)cc1	-2%	-4.0%
CC(=O)N1CC2CC(C1)c1cccc(=O)n1C2 (configuration not stated)	4%	1.8%
C/C=C(\C)C(=O)C[Si](C)(C)c1ccccc1	0%	9.3%
CCCn1c(-c2ccc(F)cc2)nc2c(NCCCCN(C)C)nc(C)nc21	2%	-7.8%
COc1ccc(OC)c([C@H](O)CNC(=O)CN)c1	-8%	-1.5%
COc1ccc2c(c1)C(=O)[C@H](OC(=O)NS(=O)(=O)c1ccc(F)cc1)[C@@H](c1ccc(OC)c(Br)c1)O2	-2%	1.8%
CC/C=C\C/C=C\C/C=C\C/C=C\C/C=C\C/C=C\CCC(=O)NCCc1ccc(O)c(O)c1	-10%	4.5%
CCOC(C)OCC	-11%	1.7%
CCCCC1=CC2=C(OC(C)=O)C(=O)C(C)(OC(=O)c3ccc(Cl)nc3)C(=O)C2=CO1 (configuration not stated)	4%	1.9%
CC1(Cn2ccnn2)[C@H](C(=O)O)N2C(=O)C[C@H]2S1(=O)=O (some centres not stated)	-3%	0.6%

The listing continues.
SMILES	Cruzain inh noDet	Cruzain inh Det
CC(=O)OCC(=O)[C@@]1(O)[C@H](OC(C)=O)C[C@H]2[C@@H]3CCC4=CC(=O)C=C[C@]4(C)[C@@]3(F)[C@@H](O)C[C@@]21C	2%	-2.2%
Cc1nc(NCCO)c2nc(-c3ccccc3)n(CCCN(C)C)c2n1	-5%	-3.5%
C[C@]12[C@H](O)CC3C(CC[C@@H]4C[C@@H](O)CC[C@]34C)[C@@]1(O)CC[C@@H]2C1=CC(=O)OC1 (some centres not stated)	8%	4.3%
CCCC(C)C1(CC)C(=O)NC(=S)NC1=O (configuration not stated)	3%	1.4%
COc1c(O[C@H]2O[C@@H](CO)[C@@H](O)[C@@H](O)[C@@H]2O)cc2c(c1OC)-c1ccc(SC)c(=O)cc1[C@H](NC(C)=O)CC2	2%	-9.4%
COC(=O)C1=C(C)NC(C)=C(C(=O)OC(C)C)[C@H]1c1cccc2nonc12	-6%	-3.5%
C/C1=C2N=C(/C=C3N=C(/C(C)=C4\[N-]C(C)(C5N=C1C(C)(CCC(=O)NCC(C)OP(=O)([O-])O[C@H]1C(O)C(n6cnc7cc(C)c(C)cc76)O[C@@H]1CO)C5CC(N)=O)C(C)(CC(N)=O)C4CCC(N)=O)C(C)(CC(N)=O)C\3CCC(N)=O)C(C)(C)C/2CCC(N)=O.[CH2-]C1OC(n2cnc3c(N)ncnc32)C(O)C1O.[Co] (some centres not stated)	13µM*	10µM*
CCCCO	1%&-5%	3.9%&6.3%
S=C1NC=NC2N=CNC12 (configuration not stated)	?	3.2%
Cc1ccc(CN2C(=O)C[C@@H](NS(=O)(=O)c3ccc4ccccc4c3)C/C=C\C2c2ccc(C)cc2)cc1 (some centres not stated)	-4%	2.6%
COC(=O)c1ccc(C(NC(=O)OCc2ccccc2)/C(=C/[C@@H](C)C(=O)N[C@@H](CO)Cc2ccccc2)c2cccnc2)cc1 (some centres not stated)	?	0.3%
COC(=O)[C@H]1C[C@@H]2CC[C@@H](O)C[C@@H]2N1Cc1c(F)cccc1Cl	0%	1.0%

New compounds follow:
SMILES	Cruzain inh noDet	Cruzain inh Det
N#CCc1ccccc1	-5%	5.2%
CC1C=C[C@@H]2[C@H](C1)C(=O)N(Cc1ccccc1)[C@H]2c1ccccc1Br (some centres not stated)	2%	-1.4%
COc1ccc(NC2C[C@H]3CCCC(=O)N4CC[C@@H](C2)[C@@H]34)cc1 (some centres not stated)	0%	0.5%
CCC/C=C(\CCC)C(NC(=O)c1cccs1)c1ccc(C(F)(F)F)cc1 (configuration not stated)	10%	0.6%
Cc1nc(NC2CCCCC2)c2nc(-c3ccccc3)n(CC3CCN(C)CC3)c2n1	-2%	-3.3%
Oc1ccc2cc(SSc3ccc4cc(O)ccc4c3)ccc2c1	?	8.5%
CC(C)C[C@@H](CC(=O)N[C@@H](CCC(=O)O)CC(=O)O)NC(=O)[C@@H]1CCCC[C@H]1NC(=O)C[C@@H](NC(=O)C[C@H](Cc1ccccc1)NC(=O)[C@@H]1CNCC[C@H]1N)C(C)C	-6%	2.0%
O=C(O)CCC/C=C\C[C@@H]1[C@@H](/C=C/[C@@H](O)COc2cccc(C(F)(F)F)c2)[C@H](O)C[C@@H]1O	7%	0.0%
CCCC/C=C/C(NC(=O)c1ccco1)c1ccccc1 (configuration not stated)	-4%	-2.6%
CCC/C=C(\CCC)C(NS(=O)(=O)c1ccc(C(F)(F)F)cc1)c1ccc(C(=O)OC)cc1 (configuration not stated)	-12%	-4.3%
CC1CCC2[C@](C)(CO)C(O)CC[C@]2(C)C12CCC(CO)(CCO)O2 (some centres not stated)	9%	5.3%
COc1ccc2c(c1)OC(=O)CC2c1ccc2c(c1)OCO2 (configuration not stated)	-1%	-3.3%

Next results follow:
SMILES	Cruzain inh noDet	Cruzain inh Det
O=C=NC1CCCCC1	-2%&-7%	0.9%&-2.5%
CC[C@]1([C@H]2O[C@@H]([C@@H]3O[C@](O)(CO)[C@@H](C)C[C@H]3C)C[C@H]2C)CC[C@@H]([C@]2(C)CC[C@@]3(C[C@@H](O)[C@@H](C)[C@@H]([C@H](C)[C@H](OC)[C@H](C)C(=O)O)O3)O2)O1	-2%	0.1%
COC(=O)[C@@]1(Cc2ccccc2)C=C[C@@H](C)N1C(=O)c1ccccc1	-1%	14%
CN[C@@H]1[C@H](O[C@@H]2O[C@H](C)[C@@](O)(CO)[C@H]2O[C@H]2[C@H](O)[C@H](O)[C@H](N=C(N)N)[C@@H](O)[C@@H]2N=C(N)N)O[C@@H](CO)[C@H](O)[C@H]1O	-3%	-5.2%
O=CN1CCCCC1C1CC[C@H]2CCCCN2C1 (some centres not stated)	3%	3.7%
COC(=O)c1ccc(C(/C=C/[C@@H](C)C(=O)NCCN2CCCC2)NC(=O)OCc2ccccc2)cc1 (some centres not stated)	?	4.0%
CC(=O)N[C@@H](Cc1ccc(O)cc1)C(=O)O	-4%	2.3%
C=CC1CN2CCC1CC2C(OC(=O)OCC)c1ccnc2ccc(OC)cc12 (configuration not stated)	-5%	5.3%
CCN(CC)CCOC(=O)[C@@H](Cc1cccc2ccccc12)C[C@@H]1CCCO1	2%	3.0%
OC[C@@H]1CCCN2CCCC[C@@H]12	3%	2.0%
O=C(OCCOCCO)c1ccccc1Nc1cccc(C(F)(F)F)c1	?	-11%
CCC/C=C(\CCC)C(NC(=O)CCc1ccccc1)c1ccc(C(F)(F)F)cc1 (configuration not stated)	-27%	-2.6%

The last seven compounds of the part above come first, to join the parts.
SMILES	Cruzain inh noDet	Cruzain inh Det
COC(=O)c1ccc(C(/C=C/[C@@H](C)C(=O)NCCN2CCCC2)NC(=O)OCc2ccccc2)cc1 (some centres not stated)	?	4.0%
CC(=O)N[C@@H](Cc1ccc(O)cc1)C(=O)O	-4%	2.3%
C=CC1CN2CCC1CC2C(OC(=O)OCC)c1ccnc2ccc(OC)cc12 (configuration not stated)	-5%	5.3%
CCN(CC)CCOC(=O)[C@@H](Cc1cccc2ccccc12)C[C@@H]1CCCO1	2%	3.0%
OC[C@@H]1CCCN2CCCC[C@@H]12	3%	2.0%
O=C(OCCOCCO)c1ccccc1Nc1cccc(C(F)(F)F)c1	?	-11%
CCC/C=C(\CCC)C(NC(=O)CCc1ccccc1)c1ccc(C(F)(F)F)cc1 (configuration not stated)	-27%	-2.6%
COc1ccc(C[C@@H]2NC[C@H](O)[C@@H]2OC(C)=O)cc1	-11%	-1.9%
[O-]/[N+](=N\O)c1ccccc1	7%	-1.9%
C=CC(=O)CC	3%	2.4%
CCCCCCCC/C=C\CCCCCCCC(=O)N(CCO)CCO	?	1.3%
CC(C)CO	-2%	0.0%
Cc1ccc(Cl)cc1	-1%	-3.5%
O=C1C2CC=CCC2C(=O)N1SC(Cl)(Cl)Cl (configuration not stated)	-3%&-5%	-4.9%&4.4%
CC(=O)N1CC=CC1(C)C(=O)NCC1CC1 (configuration not stated)	-3%	13%
S=C=Nc1cccc(NC(=S)NCCCCNC(=S)Nc2cccc(N=C=S)c2)c1	-15%	0.1%
CC(C)[C@@H](CC(=O)N[C@@H]1CCCC[C@H]1C(=O)N[C@H](CC(=O)N[C@@H](CCC(=O)O)CC(=O)O)Cc1c[nH]c2ccccc12)NC(=O)C[C@H](Cc1c[nH]c2ccccc12)NC(=O)[C@@H]1CCCC[C@H]1N	22%	-1.7%
CC1(C)CC[C@]2(C(=O)O)CC[C@]3(C)C(=CCC4[C@@]5(C)CC[C@H](O)C(C)(C)[C@@H]5CC[C@]43C)C2C1 (some centres not stated)	2%	3.2%
CCCn1c(-c2ccc(F)cc2)nc2c(NCCCCN3CCCC3)nc(C)nc21	-1%	-2.8%

(continued)
SMILES	Cruzain inh noDet	Cruzain inh Det
CCCCC[C@H](O)/C=C/[C@H]1C(=O)C[C@H](O)[C@@H]1C/C=C\CCCC(=O)O	-10%	1.1%
Nc1cccc2c(N)cccc12	2%	-5.2%
NCC1O[C@@H](OC2C(N)C[C@H](N)[C@@H](O[C@H]3OC(CO)C(O)C(N)C3O)C2O)C(N)C(O)C1O (some centres not stated)	-5%	-6.5%
c1ccc(P(c2ccccc2)c2ccccc2)cc1	6%	-2.2%
CO[C@]1(NC(=O)C2SC(=C(C(N)=O)C(=O)O)S2)C(=O)N2C(C(=O)O)=C(CSc3nnnn3C)CS[C@H]21 (some centres not stated)	3%	-2.9%
C[C@H](N)[C@H](O)c1cccc(O)c1	1%	-1.4%
ClC/C=C/CCl	-5%	5.1%
CNC(=O)[C@H](C)[C@H]1C[C@]1(C)[C@H](NC(=O)OCc1ccccc1)c1ccccc1	3%	-5.3%
COC(=O)[C@@]1(Cc2ccc(OC)cc2)[C@H]2c3cc(C(=O)N4CCCC4)n(CCc4c[nH]c5cc(F)ccc45)c3C[C@H]2CN1C(=O)c1ccccc1	?	1.6%
CC(=O)C1(C)CC2=C(CCCC2(C)C)CC1C (configuration not stated)	-1%	-3.3%
CC(C)C#N	-5%	0.8%
CC(C)(C)C(=O)OCC(=O)C1CCC2C3CCC4=CC(=O)CCC4(C)C3CCC12C (configuration not stated)	-2%	0.0%
CN1C(=O)C(O)N=C(c2ccccc2)c2cc(Cl)ccc21 (configuration not stated)	6%	-1.7%
COc1ccc2c(c1)C(c1cc(OC)c(OC)c(OC)c1)CC(=O)O2 (configuration not stated)	4%	0.5%
Cc1ncc(CN2CC=C(c3ccccc3)CC2)c(N)n1	-1%	4.0%

Source: PubChem BioAssay
